Compound activity from PubChem BioAssay.
VDR inhibitor = blocks the human vitamin D receptor; 400,000 compounds, 0.93% hits; P11473; Potency, µM, for the others: max response, negative = inhibition, actives largely listed as inhibitors; AID 504847; VDR-SRC2-3 peptide fluorescence polarization, 2 h; active means well fitted inhibition curve with a large enough effect; inconclusive means small, poorly fitted or top-dose-only effect, or another doubt; inactive means no such curve, though single readings can be large or run the other way; further: series mostly up to about 120 µM
Target sequence (P11473 whole entry, looked up): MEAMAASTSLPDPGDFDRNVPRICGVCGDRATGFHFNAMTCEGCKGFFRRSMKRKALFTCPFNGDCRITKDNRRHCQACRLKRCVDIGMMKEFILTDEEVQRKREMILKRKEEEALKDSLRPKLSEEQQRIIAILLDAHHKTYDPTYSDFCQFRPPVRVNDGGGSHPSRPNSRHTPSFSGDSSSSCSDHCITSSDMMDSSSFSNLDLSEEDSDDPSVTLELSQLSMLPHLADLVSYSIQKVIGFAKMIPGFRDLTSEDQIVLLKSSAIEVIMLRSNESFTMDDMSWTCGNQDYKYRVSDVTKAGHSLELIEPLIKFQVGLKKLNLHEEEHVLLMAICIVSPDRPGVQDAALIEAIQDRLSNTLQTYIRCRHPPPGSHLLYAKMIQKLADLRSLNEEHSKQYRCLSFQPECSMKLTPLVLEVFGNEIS
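The screen uses fluorescence polarization to detect compounds that interfere with recruitment of the SRC2-3 coactivator peptide to VDR; plates are read after 2 h at room temperature.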
Active calls of the source: *; ? = inconclusive; & = joins results of further samples; ! = a repeat was not active. On the % scale 0 is the no-effect control and ±100 the full control effect; potency means the concentration at half of the fitted maximal effect.

SMILES	VDR inhibitor
CCOc1ccc(C2c3c(oc4ccc(C)cc4c3=O)C(=O)N2CCCN2CCOCC2)cc1 (stereo not drawn)	2%
CCC(Sc1nc2ccccc2[nH]1)C(=O)Nc1ccc(NC(C)=O)cc1 (stereo not drawn)	3%
O=c1[nH][nH]c(-c2ccccc2O)c1C(C[N+](=O)[O-])c1cccc(Cl)c1 (stereo not drawn)	-12%
O=C(c1cnccn1)N(c1ccccc1)C1(C(=O)NC2CCCCC2)CCCCC1	1%
O=C1CC(c2cccc(Cl)c2)CC(O)=C1C=Nc1ccccc1 (stereo not drawn)	-23%
COc1ccc(CN2CCNC(=O)C2CC(=O)NC2CC(C)(C)CC(C)(C)C2)cc1OC (stereo not drawn)	1%
Cc1ccc(C(=C2C3C=CC2C2C(=O)NC(=O)C32)c2ccc(C)cc2)cc1 (stereo not drawn)	-12%
Cc1cccc(C(=O)N2CCNC(=O)C2CC(=O)Nc2ccc(F)cc2)c1 (stereo not drawn)	-1%
Cn1cc(S(=O)(=O)NCc2ccc(Cl)cc2)c(=O)n(C)c1=O	15%
CCOC(=O)c1ccc(NC(=O)c2nc[nH]c2C(=O)N2CCc3ccccc3C2)cc1	-7%
COc1ccc(N=Nc2ccc(O)c(P(=O)(c3ccccc3)c3ccccc3)c2)cc1	-17%
CCn1c(SCC(=O)NNC(=O)c2ccccc2)nnc1-c1ccco1	-1%
CSc1nccc(-c2c(-c3ccc(Cl)cc3)noc2C)n1	-16%
O=C(CSc1nnc(-c2ccccn2)o1)Nc1ccccc1C(F)(F)F	8%
Cc1ccc(C2CC(c3ccc(Br)cc3)=NN2C(=O)CSC2=NN3CCCC(=O)N=C3S2)cc1 (stereo not drawn)	4%
COc1cccc(N2CCN(C(=O)c3ccc(-c4ccccc4)cc3)CC2)c1	2%
O=C(Nc1ccc(Cl)cc1)c1ccc(OC2CSC2)cc1	-4%
CN(C)c1ccc(NC(=S)c2ccccn2)cc1	-24%
CN(C)c1ccc(/C=C/c2nc3ccccc3c(=O)n2-c2ccc(C(=O)O)cc2)cc1	-22%
O=C(CCNC(=O)c1ccco1)Nc1ccc(OC(F)(F)F)cc1	-9%
COc1c2occc2cc2ccc(=O)oc12	-6%&7%&2%
Cc1ccc(NC2CCCCC2NS(=O)(=O)c2ccccc2)c(C)c1 (stereo not drawn)	18%
O=C(NCCc1ccc(Cl)cc1)c1ccc(Cn2c(=O)[nH]c3ccccc3c2=O)cc1	7%
Cc1nc(C)c(Oc2cccc(C(F)(F)F)c2)c(=O)[nH]1	5%
CC(/C=C/c1ccco1)=N\NC(=O)c1cc(Cl)ccc1O	-20%
COc1ccccc1N1CCN(/N=C/c2ccc(Cl)c([N+](=O)[O-])c2)CC1	-17%
N#CC1=C(N)NC(=S)C(C(N)=O)C1c1ccccc1F (stereo not drawn)	4.5µM*
COc1ccccc1NC(=O)CSc1nc(-c2cccc(Cl)c2)nc2c1Cc1c(CO)cnc(C)c1O2	-12%
S=c1nc[nH]c2c1ncn2-c1ccccc1	3%
Cc1cc2oc(C(=O)Nc3sc4c(c3C(=O)NCC3CCCO3)CCC4)cc(=O)c2cc1C (stereo not drawn)	0%
Cc1oc(S(=O)(=O)N2CCCCC2)cc1NC(=O)Nc1ccc(F)cc1	-11%
CCOC(=O)C1=C(CBr)NC(=O)NC1C (stereo not drawn)	2%
Cc1cc(C)c(C)c(S(=O)(=O)NCC(=O)NCC2CCCCC2)c1C	-3%
O=C(COc1ccccc1)NCC(=O)NC1CCCCC1	4%
O=C(c1ccccc1NS(=O)(=O)c1ccc(F)cc1F)N1CCCCC1	-8%
Cc1[nH]c(=O)[nH]c(=O)c1Sc1ccccc1[N+](=O)[O-]	-9%
CCN1C(=O)C(O)(c2c[nH]c3ccccc23)c2cc(Br)ccc21 (stereo not drawn)	-19%
O=S(=O)(NCC1(N2CCOCC2)CCCCC1)c1ccccc1Cl	-4%
CCOC(=O)C(=CNc1cc(C)nn1-c1ccc(Cl)cc1)C(=O)OCC	-6%
CCOC(=O)c1cc(-c2cccnc2)nn1-c1ccccc1C	?
O=c1[nH]c2ccc(Br)cc2c(-c2ccccc2)c1CN1CCOCC1	?
O=C(NCCc1ccccc1)C1CCN(S(=O)(=O)c2cccc3nonc23)CC1	6%
Cc1ccc(NC(=O)c2cccs2)cc1NC(=O)c1ccccc1Cl	15%
CCCCn1c(N)c(N(CC(C)C)C(=O)c2ccc(S(=O)(=O)N3CCCCC3)cc2)c(=O)[nH]c1=O	2%
CC(C)NS(=O)(=O)c1ccc(NC(=O)C2CCCCC2)cc1	-10%
COc1ccc(NC(=O)Cn2ncn3nc(-c4ccc(OC)cc4)cc3c2=O)cc1	2%
C=CC[C@@H](CC(=O)N(CCO)Cc1ccccc1)C(=O)NC[C@@H](OC(=O)[C@@H](CC=C)CC(=O)OC(C)(C)C)c1ccccc1	-7%
Cn1cccc1/C=N/NC(=O)c1ccco1	0%
O=C(Nc1ccc(Br)cc1)C1C2C=CC3(O2)C1C(=O)N(CCN1CCOCC1)C3C(=O)NC1CCCCC1 (stereo not drawn)	8%
COC(=O)c1[nH]c(C)c(/C(O)=C2\C(=O)C(=O)N(CCN(C)C)C2c2cc(OC)ccc2OC)c1C (stereo not drawn)	11%

Filtered by structure, the compounds so far with bromine.
SMILES	VDR inhibitor
Cc1ccc(C2CC(c3ccc(Br)cc3)=NN2C(=O)CSC2=NN3CCCC(=O)N=C3S2)cc1 (stereo not drawn)	4%
CCOC(=O)C1=C(CBr)NC(=O)NC1C (stereo not drawn)	2%
CCN1C(=O)C(O)(c2c[nH]c3ccccc23)c2cc(Br)ccc21 (stereo not drawn)	-19%
O=c1[nH]c2ccc(Br)cc2c(-c2ccccc2)c1CN1CCOCC1	?
O=C(Nc1ccc(Br)cc1)C1C2C=CC3(O2)C1C(=O)N(CCN1CCOCC1)C3C(=O)NC1CCCCC1 (stereo not drawn)	8%

The listing continues:
SMILES	VDR inhibitor
CC1CC(C)(C)NC(=S)N1CCC(=O)NCc1ccc(F)cc1 (stereo not drawn)	1%
O=C(OCn1ncc(Cl)c(Cl)c1=O)c1ccc(C(F)(F)F)cc1	20µM*
COc1cc(NS(=O)(=O)c2ccc(NC(=S)NC(=O)C3CCCC3)cc2)nc(OC)n1	7%
COCCN(C(=O)CSc1nnc(-c2cccc(F)c2)n1N)c1c(N)n(Cc2ccccc2)c(=O)[nH]c1=O	-11%
OCCNCCCCSc1ccc(Cl)cc1	-4%
CC(C)(C)c1ccc(C(=O)N/C(=C\c2cccs2)C(=O)N2CCOCC2)cc1	-7%
CCC(CC)C(=O)NCc1ccc(OC)cc1	-9%
COc1cc(-c2cc(C(=O)Nc3ccc(S(=O)(=O)NCc4ccco4)cc3)c3ccccc3n2)cc(OC)c1OC	-19%
COc1cc(C)c(Cl)cc1S(=O)(=O)N(C)C	-4%
C=CCSc1nnc(NC(=O)c2cn(CC)c3nc(C)ccc3c2=O)s1	-6%
CN1CCCN(S(=O)(=O)c2cccc(Cl)c2Cl)CC1	-20%
CCn1cc(CN2CCCC(C(=O)Nc3cccc(-c4cc5ccccc5[nH]4)c3)C2)c(C)n1 (stereo not drawn)	-5%
C/C(CCc1oc2ccccc2c1-c1ccc(C)o1)=N/O	-13%
CNC(=O)c1ccccc1NC(=O)C1CC(=O)N(C(C)C)C1 (stereo not drawn)	-3%
Cc1c(N=Cc2cc(Br)cc(Br)c2O)cccc1C(=O)O	-23%
Cc1ccc(-n2c(=O)c3c(c4cc(C)ccc4n3C)n(CC(=O)NCCC3=CCCCC3)c2=O)cc1	-3%
COc1cc(NC(=O)COc2ccccc2Cl)ccc1NC(=O)C(C)C	25%
CCCCN1C2=C(C(=O)CCC2)C(c2ccc(Cl)c(Cl)c2)C2=C1c1ccccc1C2=O (stereo not drawn)	-12%
CC1CCCCN1c1cc2c(cc1F)c(=O)c(S(=O)(=O)c1ccccc1)cn2Cc1ccccc1 (stereo not drawn)	8%
COc1ccc(-c2cn3cccnc3n2)cc1F	-22%
COc1ccc(C2(CN(C(C)=O)C(C)=O)CCCC2)cc1OC	-1%
COc1ccc(CCNC(=O)c2nnn(CC(=O)Nc3ccccc3)c2N)cc1OC	2%
COc1ccc(-c2nc3n(n2)C(c2ccc(O)cc2)C(C(=O)Nc2cccnc2)=C(C)N3)cc1OC (stereo not drawn)	10%
Cc1cccc(C)c1NC(=O)c1csc2c1CCCC2	-27%
COc1ccccc1NC(=O)CN1CCN(CC(=O)Nc2cc(C)ccc2OC)CC1	-11%

Ordered by value in VDR inhibitor (descending): 3 of the compounds above
SMILES	VDR inhibitor
CC1CC(C)(C)NC(=S)N1CCC(=O)NCc1ccc(F)cc1 (stereo not drawn)	1%
Cn1cccc1/C=N/NC(=O)c1ccco1	0%
COc1cc(-c2cc(C(=O)Nc3ccc(S(=O)(=O)NCc4ccco4)cc3)c3ccccc3n2)cc(OC)c1OC	-19%

The list continues.
SMILES	VDR inhibitor
CC1CN(S(=O)(=O)c2cccc(C(=O)OCC(=O)Nc3ccc4c(c3)OCO4)c2)CC(C)O1 (stereo not drawn)	-7%
COc1ccccc1NS(=O)(=O)c1cc(NC(=O)c2ccncc2)ccc1N1CCCC1	?
CC1(C)CCCN(C(=O)c2coc(=O)c(Br)c2)C1	-9%
Cc1cc(C)c2c(-n3cccc3)c(C(=O)NCCc3ccc(Cl)cc3)sc2n1	5%
CCn1c(Cc2cccs2)nnc1SCC(=O)Nc1ccc(OC)c(OC)c1	-6%
C=CCNc1cnn(-c2ccccc2)c(=O)c1Cl	-4%
Cc1ccc(NC(=O)C(C)C(=O)Nc2ccc(C)cc2)cc1	2%
CN1CCN(c2ncncc2-c2ccc(C(=O)N(C)C)cc2)CC1	14%
COc1ccc(-c2nn(-c3ccccc3)cc2C(=O)NC(=S)Nc2cc(Cl)ccc2Cl)cc1	?
Cc1ccc(CNC(=O)C2CCN(S(=O)(=O)c3cc(-c4noc(C)n4)ccc3C)CC2)cc1	8%
CCOC(=O)c1sc(N(Cc2ccccc2)C(=O)CN2C(=O)CN(C)C2=O)nc1C	15%
COc1ccc(-c2nc(CS(=O)CC(=O)NC3CCCCCC3)c(C)o2)cc1 (stereo not drawn)	-14%
CN(Cc1ccco1)c1ncnc2ccc(-c3ccc4c(c3)OCO4)cc12	40µM*!
O=C(O)CSc1c2c(nc3cc(C(=O)N4CCOCC4)ccc13)CCCC2	-7%
c1cc(C(c2nnnn2C2CCCC2)N2CCOCC2)ccn1 (stereo not drawn)	-10%
CCOc1ccccc1Nc1nc2ccccc2nc1NS(=O)(=O)c1ccc(Cl)cc1	-7%
COc1ccc(NC(=O)C(Br)C(C)C)cc1 (stereo not drawn)	-8%
COc1ccc(OC)c(C(=O)N(C)C2CCCN(Cc3ccccc3F)C2)c1 (stereo not drawn)	2%
COc1cccc(-c2ccc3ncnc(Nc4ccccc4)c3c2)c1	-16%
CS(=O)(=O)N1CCC[C@@]2(CCN(Cc3ccc(C#N)cc3)C2)C1	-17%
CC(O)CNCCNCc1c(OCc2ccccc2)ccc2ccccc12 (stereo not drawn)	-14%
CCN(CC)S(=O)(=O)c1cccc(NC2=NCCCCC2)c1	-25%
CCOc1ccc2nc(N3CCCC(C(=O)Nc4cc(C)ccc4C)C3)sc2c1 (stereo not drawn)	6%
COc1cc(N=Cc2c(O)[nH]c3ccccc23)cc(OC)c1OC	-6%
COc1ccc(Cn2c(C(=O)O)c(CNC3CCCCCC3)c3ccc(OC)cc32)cc1	1%
O=S(=O)(N/N=C/c1ccccc1F)c1ccccc1	?
COc1ccc(-c2nn(-c3ccccc3)cc2/C=C/C(=O)OCC(=O)Nc2ccccc2C#N)cc1	-13%
Cc1cc(NC(=O)c2ccc(C)c([N+](=O)[O-])c2)no1	-4%
CCCCN(C(=O)CSCc1c(C)noc1C)c1c(N)n(CCC)c(=O)[nH]c1=O	12%
COc1cccc(NC(=S)N2CCN(S(=O)(=O)c3ccccc3)CC2)c1	10%
CC1(C)CC2CC(C)(CN2S(=O)(=O)c2ccc(F)cc2F)C1 (stereo not drawn)	-17%
O=C(Nc1cccc(C(F)(F)F)c1)Nc1ccc2[nH]c(=O)[nH]c2c1	-13%
Cn1c(=O)c(C(=O)Nc2ccccc2S(N)(=O)=O)c(O)c2ccccc21	-2%
COc1cc(CNCCO)ccc1OCC(=O)Nc1ccc(Br)cc1	21%
CN(C)S(=O)(=O)c1cc(NC(=O)COC(=O)c2nc(Cl)ccc2Cl)ccc1Cl	3%
O=C1CN(C(=O)Nc2ccccc2Cl)C(c2ccccc2)c2c(sc3c2CCCC3)N1 (stereo not drawn)	6%
N#Cc1ccccc1Cn1c(-c2cscn2)nc2ccccc21	-6%
N#CCC(=O)Nc1ccc(C(=O)Nc2ccc3c(c2)OCO3)cc1	9%
Cc1nn(C(=O)N2CCOCC2)c(C)c1C	11%
CC(C)=C(NC(=O)c1ccccc1)C(=O)Nc1cccc(C)c1	30%
CCCn1c2ccccc2c2cnn(CC(=O)N(C)c3ccc(F)cc3)c(=O)c21	1%
CCOC(=O)C1=C(COC(=O)c2ncc(Cl)c(Cl)c2Cl)NC(=O)NC1C (stereo not drawn)	-3%
COC(=O)c1c(SCC(=O)Nc2cccc(C(F)(F)F)c2)[nH]c2ccccc2c1=O	18%
COc1cc(/C=N/Nc2nc3ccccc3s2)ccc1O	1%
O=C(CN(Cc1ccccc1)S(=O)(=O)c1ccccc1)NC1CC1	11%
Cc1ccccc1CN1C(=O)C(C)S/C1=N/N=C/c1ccco1 (stereo not drawn)	8%
Cc1ccc2c(c1)C(=O)OC(C(=O)Nc1ccc(C(=O)O)cc1)C2 (stereo not drawn)	1%
CCCc1cc(Nc2cccc(OC)c2)n2ncnc2n1	-16%

An excerpt; the hit share may differ from the screen's.
